2A StopGo: High Throughput Screening for Foot and Mouth Disease Virus Antivirals; human cells with a luciferase reporter of 2A StopGo recoding; control for the full effect not named in the record; Potency, µM (doses to about 57.9 µM), without a hit: top-dose signal change, negative = less light; 410,000 tested, 1.2% active; active = well fitted falling curve with a large enough effect; inconclusive = small, poorly fitted or top-dose-only effect; inactive = no such curve, though single readings can be large or run the other way; tested in HEK293T cells; also: % is scaled to controls: 0 for no effect and ±100 for the full control effect; nearly all actives have a fitted effect of over 45% in size; luciferase light after 4 h
Cruzain inh Det: qHTS Assay for Promiscuous and Specific Inhibitors of Cruzain (with detergent); Cruzipain (Trypanosoma cruzi), P25779; purified cruzain, Z-FR-AMC fluorescence, 0.01% Triton; Potency, µM, inactives show max response, negative = inhibition, most hits filed as inhibitors; 200,000 tested, 0.43% active; active = well fitted curve in the direction sought with a large enough effect; inconclusive = small, poorly fitted or top-dose-only effect, or another doubt; inactive = no such curve, though single readings can be large; an effect the other way counts as inactive or inconclusive;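 also: plate controls were neutral wells for no effect and buffer without enzyme for full effect; nearly all actives have a fitted effect of over 40% in size; top concentration of the series not given in the record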
Target sequence (P25779 123-467 limits assumed): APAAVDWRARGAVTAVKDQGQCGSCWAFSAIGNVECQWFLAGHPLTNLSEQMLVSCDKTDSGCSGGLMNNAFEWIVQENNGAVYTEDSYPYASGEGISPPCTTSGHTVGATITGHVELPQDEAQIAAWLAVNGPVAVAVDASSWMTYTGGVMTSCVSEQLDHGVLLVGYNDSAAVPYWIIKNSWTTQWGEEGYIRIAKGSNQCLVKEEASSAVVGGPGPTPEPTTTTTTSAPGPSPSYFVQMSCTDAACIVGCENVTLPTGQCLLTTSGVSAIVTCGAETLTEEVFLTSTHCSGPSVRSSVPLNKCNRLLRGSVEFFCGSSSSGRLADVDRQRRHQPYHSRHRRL
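Z-FR-AMC hydrolysis (2 uM substrate) by cruzain (1.5 nM) monitored kinetically at ex 360/em 450 nm after 15 min room-temperature compound exposure; 0.01% Triton X-100, pH 5.5, 5 mM DTT.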
LASV entry inh: qHTS for Inhibitors of binding or entry into cells for Lassa Virus. Potency, µM (series often up to 37.9 µM), without a hit: at the highest dose activity change, negative = inhibition, hits mostly inhibitors. Lassa virus pseudotype entry inhibition, cell reporter; control for the full effect not named in the record. 300,000 tested, 1.2% active; active means well fitted inhibition curve with a large enough effect; inconclusive means small, poorly fitted or top-dose-only effect, or effect the other way; inactive means flat fitted curve, though single readings scatter; tested in HEK293 cells; also: % is scaled to controls: 0 for no effect and ±100 for the full control effect; nearly all actives have a fitted effect of over 50% in size; luciferase read-out
SARS PLpro yeast: qHTS of Yeast-based Assay for SARS-CoV PLP; S. cerevisiae expressing SARS-CoV PLpro, growth rescue; control for the full effect not named in the record; Potency, µM (doses to about 32.9 µM), for inactives: at the top dose activity, positive = growth rescue; 330,000 tested, 0.19% active; also: 0% is about no effect; nearly all actives have a fitted effect of over 55% in size; growth read by luminescence after 48 h
RE007 growth inh: qHTS Assay for Inhibitors of the HIV-1 protein Vpr | S. pombe RE007 Vpr strain, BacTiter-Glo ATP luminescence, 24 h; control for the full effect not named in the record | Potency, µM (highest dose often 92.2 µM), for inactives: at the top dose activity change, negative = less growth | 360,000 tested, 0.21% active | AID 651644, 2012; active = well fitted falling curve with a large enough effect; inconclusive = small, poorly fitted or top-dose-only effect; inactive = no such curve, though single readings can be large or run the other way;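 also: % is scaled to controls: 0 for no effect and ±100 for the full control effect; nearly all actives have a fitted effect of over 50% in size; the assay follows cell death caused by Vpr and the record does not say whether a fall means rescue or toxicity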
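Fission yeast strain RE007, carrying one chromosomally integrated HIV-1 vpr copy, was seeded at OD 0.01 in PMG+AL medium with 23 nL pinned compound. After 24 h at 30 °C and 99% humidity, viability was read by BacTiter-Glo luminescence.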
Cruzain noTriton: qHTS Assay for Promiscuous and Specific Inhibitors of Cruzain (without detergent) | AID 1476, 2009 | 200,000 tested, 2.3% active | Potency, µM, inactives show max response, negative = inhibition, usual class: inhibitors | purified cruzain, Z-FR-AMC fluorescence, no detergent; active = well fitted curve in the direction sought with a large enough effect; inconclusive = small, poorly fitted or top-dose-only effect, or another doubt; inactive = no such curve, though single readings can be large; an effect the other way counts as inactive or inconclusive;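 also: plate controls were enzyme without inhibitor for no effect and buffer without enzyme for full effect; nearly all actives have a fitted effect of over 40% in size; top concentration of the series not given in the record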
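Purified cruzain at 1.5 nM, pre-incubated 15 min with compound at room temperature in 100 mM sodium acetate pH 5.5, 5 mM DTT, 0.00005% Triton X-100. Reaction started with 2 uM Z-FR-AMC; AMC fluorescence increase over 60 s gives rate.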
MARV entry inh: qHTS for inhibitors of binding or entry into cells for Marburg Virus. Marburg virus pseudotyped entry inhibition, cell reporter; control for the full effect not named in the record; about a third of the inactives were read at about 46 µM. Potency, µM (highest dose often 37.8 µM), without a hit: at the top dose activity change, negative = inhibition, usual class: inhibitors. 300,000 tested, 1.8% active. AID 540276, 2011; active = well fitted inhibition curve with a large enough effect; inconclusive = small, poorly fitted or top-dose-only effect, or effect the other way; inactive = flat fitted curve, though single readings scatter; tested in HEK293 cells; about a fifth of its hits are not listed in these tables; also: % is scaled to controls: 0 for no effect and ±100 for the full control effect; luciferase read-out
NS1 function inh: qHTS Assay for Inhibitors of Influenza NS1 Protein Function; S. cerevisiae slowed by influenza A NS1, growth recovery by OD600; Potency, µM (top dose mostly 46.1 µM), for inactives: at the highest dose activity, positive = more growth; 270,000 tested, 0.4% active; also: actives are rising curves; nearly all actives have a fitted effect of over 50% in size
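A cell-based growth assay was used: compounds that relieve NS1-induced slow growth of budding yeast raise OD600. Assay medium was yeast nitrogen base with ammonium sulphate and -URA supplement, pH 6.0, with 2% galactose.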
* = called active by the depositor; & = joins results of further samples; [ ] = another dose, or the depositor's remark. Unless noted, calls follow the shape of the dose curve; as a rule, active means well fitted rising curve with a large enough effect; inconclusive means small, poorly fitted or top-dose-only effect; inactive means no such curve, though single readings can be large or run the other way. Potency is read from the fitted curve at half-maximal effect.

The first 3 entries, to show the layout:
Cc1ccc(NC(=O)NNC(=O)C2CC(c3cccs3)=NO2)cc1 (stereo not drawn) was read as 2A StopGo -3%, LASV entry inh 2%[46.1 µM], SARS PLpro yeast 4%, RE007 growth inh -11%, MARV entry inh 1%[46.1 µM] and NS1 function inh 2%.
Screening CCOC(=O)Nc1cccc(OCC(=O)Nc2ccccc2OC)c1 returned 2A StopGo inconclusive, Cruzain inh Det -2.0%, LASV entry inh inconclusive, SARS PLpro yeast -6%, RE007 growth inh -11%, Cruzain noTriton -3%, MARV entry inh -32%&-32% and NS1 function inh -17%.
COC(=O)N1C(c2ccccc2)=Cc2ccccc2C1C1(C(=O)OC)CCCC1=O (stereo not drawn) was read as Cruzain inh Det 1.8%, LASV entry inh inconclusive, Cruzain noTriton -2% and MARV entry inh -1%&-1%&12%&-1%[14.2 µM].

Main list, from the first entry:
Cc1ccc(NC(=O)NNC(=O)C2CC(c3cccs3)=NO2)cc1 (stereo not drawn) was read as 2A StopGo -3%, LASV entry inh 2%[46.1 µM], SARS PLpro yeast 4%, RE007 growth inh -11%, MARV entry inh 1%[46.1 µM] and NS1 function inh 2%.
Screening CCOC(=O)Nc1cccc(OCC(=O)Nc2ccccc2OC)c1 returned 2A StopGo inconclusive, Cruzain inh Det -2.0%, LASV entry inh inconclusive, SARS PLpro yeast -6%, RE007 growth inh -11%, Cruzain noTriton -3%, MARV entry inh -32%&-32% and NS1 function inh -17%.
COC(=O)N1C(c2ccccc2)=Cc2ccccc2C1C1(C(=O)OC)CCCC1=O (stereo not drawn) was read as Cruzain inh Det 1.8%, LASV entry inh inconclusive, Cruzain noTriton -2% and MARV entry inh -1%&-1%&12%&-1%[14.2 µM].
For COc1ccccc1C(=O)NCCC(=O)NC1CCCC(C)C1C (stereo not drawn) the results were 2A StopGo -6%, LASV entry inh inconclusive, SARS PLpro yeast 2%, RE007 growth inh -2% and MARV entry inh 12%.
For COc1ccc(-n2nc3c(N4CCC(C(=O)N5CCC(C)CC5)CC4)nnc(C)c3c2C)cc1 the results were 2A StopGo -25%&-17%, Cruzain inh Det -3.5%, LASV entry inh -5%[46.1 µM], SARS PLpro yeast 0%, RE007 growth inh 4%, Cruzain noTriton 4% and NS1 function inh 14%.
Screening CCN1CCN(c2ccc(S(=O)(=O)N3CCOCC3)cc2NC(=O)/C=C/c2ccc(C)cc2)CC1 returned 2A StopGo -20%, LASV entry inh -24%, SARS PLpro yeast -6%, RE007 growth inh -6% and MARV entry inh inconclusive.
`Cc1nc(SCc2ccc(C(=O)O)cc2)nc2c1CCCC2` gave 2A StopGo inconclusive, LASV entry inh -28%[46.1 µM], SARS PLpro yeast 0%, RE007 growth inh -9%, MARV entry inh inconclusive and NS1 function inh -7%.
Cc1sc(NC(=O)/C=C/c2ccco2)c(C(=O)O)c1C was read as 2A StopGo 14%, LASV entry inh inconclusive, SARS PLpro yeast -2%, RE007 growth inh -30%, MARV entry inh inconclusive and NS1 function inh -49%.
`O=C(NC1CCN(Cc2ccc(F)cc2)CC1)c1ccccc1` gave 2A StopGo -14%, LASV entry inh -2%, SARS PLpro yeast 1%, RE007 growth inh -7%, MARV entry inh inconclusive and NS1 function inh -1%.
For CCn1nc(C)c(CN2CCCC(CO)(Cc3ccccc3)C2)c1C (stereo not drawn) the results were 2A StopGo -22%, LASV entry inh -19%, SARS PLpro yeast 1%, RE007 growth inh -7%, MARV entry inh 1%[46.1 µM] and NS1 function inh -3%.
`Cc1ccccc1C(=O)NNC(=O)CSc1nnc(-c2ccncc2)n1-c1ccccc1` gave 2A StopGo -23%, Cruzain inh Det 0.0%, LASV entry inh 0%, SARS PLpro yeast -11%, RE007 growth inh 2%, Cruzain noTriton -1%, MARV entry inh -4% and NS1 function inh 0%.
For CCCN(C(=O)C1CCCN(c2ncnc3c2nc2n3CCCCC2)C1)c1ccc(F)cc1 (stereo not drawn) the results were 2A StopGo inconclusive, SARS PLpro yeast 2%, RE007 growth inh 3% and NS1 function inh -9%.
COc1ccc(S(=O)(=O)NCc2ccccn2)cc1NC(=O)c1ccccc1C was read as 2A StopGo 34%[activator], LASV entry inh inconclusive, SARS PLpro yeast 0%, RE007 growth inh 5% and MARV entry inh inconclusive.
Screening CCOC(=O)N1CCN(C(=O)CS(=O)(=O)Cc2nc(-c3ccccc3F)oc2C)CC1 returned 2A StopGo -21%, LASV entry inh inconclusive, SARS PLpro yeast -2%, RE007 growth inh -13%, MARV entry inh 1%[46.1 µM] and NS1 function inh 6%.
CCOC(=O)c1ccc(NC(=O)CC2C(=O)N(c3ccc(C)cc3)C(=O)N2C2CCCC2)cc1 (stereo not drawn) was read as 2A StopGo -8%, Cruzain inh Det -7.2%, LASV entry inh inconclusive and Cruzain noTriton 6%.
For Cc1c(Cc2ccccc2)c(=O)oc2cc(OCC(N)=O)ccc12 the results were 2A StopGo -12%, LASV entry inh -15%[46.1 µM], SARS PLpro yeast 0%, RE007 growth inh -3% and MARV entry inh -12%.
CN(Cc1c(F)cccc1Cl)C(=O)CNC(=O)c1sc2ccccc2c1Cl was read as 2A StopGo -26%, LASV entry inh -25%, RE007 growth inh -4% and MARV entry inh inconclusive.
`NS(=O)(=O)c1ccc(CCNC(=O)CSc2nc3ccccc3c(=O)n2CC2CCCO2)cc1` (stereo not drawn) gave 2A StopGo -12%, SARS PLpro yeast 3%, RE007 growth inh -17% and NS1 function inh -13%.
CCN(CC)c1ccc(C=C2C(=O)N(C)C(=S)N(C)C2=O)o1 was read as 2A StopGo -3%, Cruzain inh Det -8.3%, LASV entry inh -5%, SARS PLpro yeast -6%, RE007 growth inh -19%, Cruzain noTriton -7%, MARV entry inh inconclusive and NS1 function inh 6%.
Screening CCCCn1c(N)c(C(=O)OCCOC)c2nc3ccccc3nc21 returned 2A StopGo -1%, LASV entry inh -12%, SARS PLpro yeast 1%, RE007 growth inh 4%, MARV entry inh 13%[46.1 µM] and NS1 function inh -4%.
`CCCCC(=O)NC(=S)Nc1cc(C(=O)O)ccc1OC` gave 2A StopGo -21%, LASV entry inh -6%, SARS PLpro yeast 0%, RE007 growth inh -8%, MARV entry inh 22%[46.1 µM] and NS1 function inh 0%.
Screening CCNc1ccc(-c2nc(-c3ccncc3)no2)cc1[N+](=O)[O-] returned 2A StopGo 27%, Cruzain inh Det -7.9%, LASV entry inh 3%[46.1 µM], Cruzain noTriton 11% and MARV entry inh -14%[46.1 µM].
For CCC(CC)c1nnc(NC(=O)/C=C/c2ccco2)s1 the results were 2A StopGo 14%, Cruzain inh Det -2.0%, LASV entry inh -1%, SARS PLpro yeast -15%, RE007 growth inh -3%, Cruzain noTriton -10%, MARV entry inh -1% and NS1 function inh 0%.
CC1(C)CC(=O)C=C(NNC(=O)OC(C)(C)C)C1 was read as 2A StopGo -8%, LASV entry inh -1%[46.1 µM], SARS PLpro yeast 6%, RE007 growth inh 2%, MARV entry inh inconclusive and NS1 function inh 11%.
Screening COC(=O)COc1ccc2c(c1C)O/C(=C\c1ccco1)C2=O returned 2A StopGo inconclusive, LASV entry inh 11%[46.1 µM], SARS PLpro yeast -2%, RE007 growth inh -18%, MARV entry inh 17%[46.1 µM] and NS1 function inh -4%.
Screening COc1ccc(-c2ccc(CCC(=O)O)n2CC(=O)Nc2cccc(C(F)(F)F)c2)cc1 returned 2A StopGo 0%, Cruzain inh Det -16%, LASV entry inh inconclusive, Cruzain noTriton -7% and MARV entry inh -8%[46.1 µM].
Screening c1cn(-c2ccc(-c3ccnc4ncnn34)cc2)cn1 returned 2A StopGo -1%, LASV entry inh 13%[46.1 µM], SARS PLpro yeast 0%, RE007 growth inh 6%, MARV entry inh -3%[46.1 µM] and NS1 function inh 8%.
For O=C1CCCC2=C1Sc1ccccc1N2 the results were 2A StopGo -10%, LASV entry inh 16%, SARS PLpro yeast -2%, RE007 growth inh 5%, MARV entry inh -14%[14.2 µM] and NS1 function inh -5%.
For CCOC(=O)c1ccc(CNC(=O)CCC(=O)O)cc1 the results were 2A StopGo inconclusive, Cruzain inh Det 4.5%, LASV entry inh -2%, SARS PLpro yeast -13%, RE007 growth inh 11%, Cruzain noTriton 4%, MARV entry inh 5% and NS1 function inh 5%.
Screening CCOP(=O)(OCC)C(Nc1ccccc1)c1ccc2c(c1)OCO2 (stereo not drawn) returned 2A StopGo -12%, Cruzain inh Det 0.5%, SARS PLpro yeast 2%, RE007 growth inh 31%, Cruzain noTriton 13µM* and NS1 function inh 11%.
Screening CC(C)(C)C(=O)Nc1ccc(C(=O)COC(=O)C2=COCCO2)cc1 returned 2A StopGo -10%, LASV entry inh 16%, SARS PLpro yeast 1%, RE007 growth inh 5% and MARV entry inh -5%.
`C=CCCC(=O)Nc1nc(C)c(-c2csc(Nc3cccc(OC)c3)n2)s1` gave 2A StopGo -22%, Cruzain inh Det -5.0%, SARS PLpro yeast -1%, RE007 growth inh 5%, Cruzain noTriton 16µM* and NS1 function inh 10%.
Cc1ccc(-n2ncc3c(SCc4ccccn4)ncnc32)c(C)c1 was read as 2A StopGo inconclusive, LASV entry inh 0.56µM*, SARS PLpro yeast -21% and RE007 growth inh 3%.
O=C(CN(Cc1ccccc1Cl)S(=O)(=O)c1ccc(Cl)cc1)N/N=C/c1ccc(C(=O)O)cc1 was read as 2A StopGo -23%, SARS PLpro yeast -3%, RE007 growth inh -12% and NS1 function inh 6%.
Screening CC(=NNc1ccc2ccccc2n1)c1ccccc1O returned 2A StopGo inconclusive, LASV entry inh 3.2µM*, RE007 growth inh -17% and MARV entry inh inconclusive.
COC(=O)C1CCN(C(=O)C2CCC(=O)N(CCCc3ccccc3)C2)CC1 (stereo not drawn) was read as 2A StopGo -5%, LASV entry inh 10%[46.1 µM], SARS PLpro yeast -3%, RE007 growth inh -13%, MARV entry inh 6%[46.1 µM] and NS1 function inh 5%.
